Bioassay records from PubChem BioAssay.
GIRK2 activ: GIRK2 channel activation. P48051. AID 1259325. HEK293-GIRK2 thallium flux, Thallos fluorescence. calls only for hits at 25 µM. actives 0.05% (n = 63,000);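 active = among the strongest 0.2% of first-round signals and kept after retests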;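 note: first round at about 10 µM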
Target sequence (P48051 whole entry, looked up): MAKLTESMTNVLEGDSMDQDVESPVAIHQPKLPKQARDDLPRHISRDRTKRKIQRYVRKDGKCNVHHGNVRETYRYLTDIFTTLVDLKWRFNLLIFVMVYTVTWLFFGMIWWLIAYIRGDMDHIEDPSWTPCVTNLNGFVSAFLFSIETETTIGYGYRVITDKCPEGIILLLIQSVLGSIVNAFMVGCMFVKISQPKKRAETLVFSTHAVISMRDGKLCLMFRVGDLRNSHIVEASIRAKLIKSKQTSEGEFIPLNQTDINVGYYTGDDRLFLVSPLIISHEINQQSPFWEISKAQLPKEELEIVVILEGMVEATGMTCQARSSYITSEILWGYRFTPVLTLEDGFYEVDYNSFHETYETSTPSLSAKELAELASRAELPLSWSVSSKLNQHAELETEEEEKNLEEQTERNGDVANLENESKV
Calls only; i = inactive.

SMILES	GIRK2 activ
Cc1ccc(C(=O)NCCOc2ccccc2)cc1[N+](=O)[O-]	i
O=C(CC1CCCC1)NCC(Cc1cccc(F)c1)N1CCNC1=O (centres undefined)	i
CCN(CC)CC#CCNC(=O)c1ccccc1Oc1ccccc1	i
CN1CCN(n2c3c(c(SCC(=O)N4CCc5ccccc54)nc2=O)CCC3)CC1	i
COc1cccc(NC(=O)NCC(O)c2ccc3c(c2)CCO3)c1OC (centres undefined)	i
COc1cc2c(cc1/C=C/[N+](=O)[O-])OC(C)C2 (centres undefined)	i
O=C(c1ccc(-c2ccccc2)cc1)N1CCC2(CC1)OCCCO2	i
Cc1ccc2nc(C3CN(C(=O)c4cc(C)oc4C)C3)[nH]c2c1	i
CN(C)c1c(C=O)c(=O)n(C)c(=O)n1C	i
N#Cc1cnc2ccccc2c1N1CCC(C(=O)Nc2ccc(OC(F)(F)F)cc2)CC1	i
Cc1ccc2cc3c(nc2c1)N(N)CC3	i
Cc1nc(C)c(CNC(=O)NC2CCCC2)s1	i
O/N=C\c1cn(CC(O)Cn2cnc3ccccc32)c2ccccc12 (centres undefined)	i
O=C(Cn1cnc(-c2noc(-c3ccncc3)n2)c1)NCc1ccc(Cl)cc1	i
CCCCS(=O)(=O)NCCC(O)C(C)(C)C (centres undefined)	i
O=C(CSc1nccn2nc(-c3ccc(Cl)cc3)cc12)NC1CCCC1	i
Cn1nc(C(=O)NCCc2csc(-n3cccn3)n2)ccc1=O	i
O=C(Nc1ccc(F)cc1F)C1(c2cccs2)CCCC1	i
O=C(CSc1ccc(F)cc1)NCc1cnn2ccccc12	i
CC(C)(C)c1csc(CN2CCN(C(=O)/C=C/c3ccccc3)CC2)n1	i
COc1ncc(NC(=O)Nc2ccc(C)c(Cl)c2)cn1	i
COc1cccc(C(O)=C2C(=O)C(=O)N(CCN(C)C)C2c2cccc(OC)c2OC)c1 (centres undefined)	i
COC(=O)c1scc(-c2ccccc2)c1S(=O)(=O)Nc1cccc(C)c1	i
O=C(NCC(O)c1ccc2c(c1)CCO2)NC12CC3CC(CC(C3)C1)C2 (centres undefined)	i
NC(=O)c1ccccc1OCC#CCNC(=O)c1ccc(Cl)s1	i
O=C(c1nnn(-c2ccc(Cl)cc2)n1)N1CCN(CCc2ccccc2)CC1	i
COc1cccc(CC(=O)N2CCC(Oc3ccc(C(F)(F)F)cn3)CC2)c1	i
CCc1cccc(C)c1NC(=O)Cn1nc(-c2ccccc2)c2sc(N3CCOCC3)nc2c1=O	i
CC(=O)Cn1c(=O)c2c(nc3n(C4CCCC4)c(C)c(C)n23)n(C)c1=O	i
COc1ccc(S(=O)(=O)NCc2ccccc2)cc1N(C)S(C)(=O)=O	i

Shown as labelled records: part of the list above.
CN(C)c1c(C=O)c(=O)n(C)c(=O)n1C
  GIRK2 activ = i
N#Cc1cnc2ccccc2c1N1CCC(C(=O)Nc2ccc(OC(F)(F)F)cc2)CC1
  GIRK2 activ = i
Cc1ccc2cc3c(nc2c1)N(N)CC3
  GIRK2 activ = i
Cc1nc(C)c(CNC(=O)NC2CCCC2)s1
  GIRK2 activ = i

Additional structures
SMILES	GIRK2 activ
COc1ccc(S(=O)(=O)NCC(c2ccc(F)cc2)N2CCN(C)CC2)cc1 (centres undefined)	i
CC(C(=O)Nc1ccc(-n2cnnn2)cc1)n1nc(-c2ccccc2)ccc1=O (centres undefined)	i
CCOc1ccccc1NC(=O)CSc1nnc(N2CCN(C)CC2)s1	i
CCOc1ccccc1S(=O)(=O)N1CCC(Oc2ncccc2Cl)CC1	i
O=C(NCc1ccccn1)c1ccc(CNS(=O)(=O)c2cccc(C(F)(F)F)c2)cc1	i
c1ccc(-c2[nH]ncc2-c2ccnc(-c3ccc(OCCN4CCOCC4)cc3)c2)nc1	i
Cn1nc(-c2ccccc2)cc1C(=O)N1CC2(COC(C)(C)OC2)C1	i
Cc1ccc(C)c(S(=O)(=O)Nc2ccc(C(=O)N3CCN(C)CC3)cc2)c1	i
COc1ccc(C(=O)OC2CN(c3nc4c(OC)cccc4s3)C2)c(OC)c1	i
CSc1cccc2sc(N(CC3CCCO3)C(=O)c3ccc4c(c3)OCCO4)nc12 (centres undefined)	i
Cc1ccc(CNc2oc(-c3ccc(S(=O)(=O)N4CCCC4)cc3)nc2C#N)cc1	i
COc1ccc(NC(=O)/C=C/c2ccc(C(C)C)cc2)c(OC)c1	i
CN1[C@@H]2CC(OC(=O)[C@H](CO)c3ccccc3)C[C@H]1[C@@H]1O[C@@H]12 (some centres undefined)	i
CC(C)NC(=O)Cn1nc(C2CCN(S(C)(=O)=O)CC2)n(C)c1=O	i
COc1ccc(NC(=O)Cn2nc3nc(N4CCCCCC4)ccn3c2=O)cc1Cl	i
Cc1cc(C)n(CC(=O)Nc2ccc(Cl)cc2)c(=O)c1-c1nc(-c2ccccc2)no1	i
CC(C)Cn1c(=O)c2ccccc2n(Cc2nc(-c3cccs3)no2)c1=O	i
CCc1c(C)nc2n(c1=O)CC(C(=O)Nc1sccc1C(=O)OC)CS2 (centres undefined)	i
CCOc1ccccc1C(=O)N1c2ccccc2CC1C(=O)NC (centres undefined)	i
CCc1c(C)nc2n(c1=O)CC(C(=O)NCCOc1ccc(F)cc1)CS2 (centres undefined)	i
COc1ccc(S(=O)(=O)NCCCn2nc(-c3ccncc3)ccc2=O)cc1F	i
COc1ccc(C(O)=C2C(=O)C(=O)N(c3cc(C)on3)C2c2cccc([N+](=O)[O-])c2)cc1C (centres undefined)	i
C=CCn1c(SCC(=O)Nc2ccc(C(=O)OC)cc2)nc2nc(N3CCCCC3)sc2c1=O	i
Cc1nn(C)cc1C(=O)N1CCN(C(c2ccccc2)c2ccccc2)CC1	i
COC(=O)Cn1c(N2CCOCC2)nc2c1c(=O)[nH]c(=O)n2C	i
COc1cccc(C(=O)NCC2(c3ccccc3OC)CCOCC2)c1	i
CN(C)CC1CSCCCN1C(=O)CSCc1ccccc1 (centres undefined)	i
CCCCC(C)(O)C/C=C/[C@H]1C(O)CC(=O)C1CCCCCCC(=O)O (some centres undefined)	i
Cc1ccc2nc(-n3nc(C)cc3NC(=O)C3CCN(S(C)(=O)=O)CC3)sc2c1	i
O=C(NCc1ccccc1C(F)(F)F)C1CCN(c2cc(Oc3ccccc3)ncn2)CC1	i
O=C(c1cc2n(n1)CCCO2)N1CCN(CCO)CC1	i
O=C(Cc1ccccc1Cl)Nc1ccc(-n2nnc(C(=O)N3CCCC3)n2)cc1	i
O=C(NCc1ccccn1)c1cn(CC(O)c2ccccc2)nn1 (centres undefined)	i
CS(=O)(=O)Nc1ccc(-n2nnn(CC(=O)NC3CC3)c2=O)cc1	i
COc1ccc(-c2cc(N3CCC(C(=O)Nc4ccccn4)CC3)ncn2)cc1	i
O=C(Nc1cccc(-c2ccn[nH]2)c1)c1ccc(F)c(F)c1	i
CC(C)OC(=O)c1ccc(N/C=C(\C#N)c2nc(-c3cccs3)cs2)cc1	i
Cc1cc(C)n(-c2ccc(=O)n(C(C)C(=O)Nc3ccc(-n4cnnn4)cc3)n2)n1 (centres undefined)	i
COCCCn1c(C(=O)NCCCN2CCCC2=O)cc2c(=O)n3ccccc3nc21	i
COc1ccc(C2CCN(S(=O)(=O)Cc3ccccc3)C2)cc1 (centres undefined)	i
O=C(CCc1csc(NC(=O)Nc2ccccc2)n1)NCCC1=CCCCC1	i
CCOC(=O)c1ccc(NC(=O)CN2N=NC3C(=O)N(c4ccc(F)c(F)c4)C(=O)C32)cc1 (centres undefined)	i
CC(=O)CC1(O)C(=O)N(CCOc2ccccc2)c2c(C)cc(C)cc21 (centres undefined)	i
OC(COc1ccc(C23CC4CC(CC(C4)C2)C3)cc1)CN1CCCC1 (centres undefined)	i
CC(C)Cn1c(=O)[nH]c2c(C(=O)N3CCN(c4ncccn4)CC3)snc2c1=O	i

Part of the list above, set out differently:
GIRK2 activ,smiles
i,CC(=O)CC1(O)C(=O)N(CCOc2ccccc2)c2c(C)cc(C)cc21 (centres undefined)
i,OC(COc1ccc(C23CC4CC(CC(C4)C2)C3)cc1)CN1CCCC1 (centres undefined)
i,O=C(NCc1ccccn1)c1cn(CC(O)c2ccccc2)nn1 (centres undefined)
i,O=C(Cc1ccccc1Cl)Nc1ccc(-n2nnc(C(=O)N3CCCC3)n2)cc1
i,CCOC(=O)c1ccc(NC(=O)CN2N=NC3C(=O)N(c4ccc(F)c(F)c4)C(=O)C32)cc1 (centres undefined)
i,CC(C)OC(=O)c1ccc(N/C=C(\C#N)c2nc(-c3cccs3)cs2)cc1
i,O=C(c1cc2n(n1)CCCO2)N1CCN(CCO)CC1

(continued)
SMILES	GIRK2 activ
N#C/C(=C\c1cc(Cl)cc(Cl)c1)c1cccnc1	i
COc1ccc(NC(=O)Cn2cc(S(=O)(=O)c3ccc(Cl)cc3)c(=O)c3ccccc32)cc1	i
CCOc1ccccc1CCN=C1NC(=O)/C(=C/c2ccc3ncccc3c2)S1	i
CCOc1ccc(NC(=O)N2CCC(CSc3ccc(OC)cc3)CC2)cc1	i
CSc1ccccc1NS(=O)(=O)C1CC1	i
COc1ccccc1OCC#CCNC(=O)c1csc(C)n1	i
CCC(C)NC(=O)CSc1cc(-n2nc(C)cc2C)ncn1 (centres undefined)	i
COc1ccccc1NC(=O)CN(C)c1nc2c(F)cccc2s1	i
Cc1ccc(N2CCn3c2nn(CC(=O)N2CCCc4ccccc42)c(=O)c3=O)cc1	i
Cc1noc(C)c1S(=O)(=O)N(Cc1cccs1)Cc1cccn1C	i
CCOc1ccc(CC(=O)Nc2cc(C3CC3)nn2-c2nc(C(C)C)cc(=O)[nH]2)cc1	i
O=C(Nc1ccc(Cl)c(Cl)c1)c1coc(NC(=O)C2CC2)n1	i
CN(C)C(CNS(=O)(=O)Cc1ccccc1Cl)c1ccc2c(c1)CCO2 (centres undefined)	i
NS(=O)(=O)c1ccc(CCNC(=O)c2csc(-n3cccc3)n2)cc1	i
COC(=O)c1cn(Cc2cccc(OC)c2)nc1S(=O)(=O)N1CCSCC1	i
CSc1ncccc1C(=O)NCc1cc(C)oc1C	i
O=C(Nc1ccc(Cl)c2ncsc12)c1ccc([N+](=O)[O-])cc1	i
CC(Oc1ccccc1)C(=O)N1CC(c2nc(-c3cccc(C(F)(F)F)c3)no2)C1 (centres undefined)	i
CC(O)Cn1c(NCc2ccco2)nc2c1c(=O)n(C)c(=O)n2C (centres undefined)	i
Cc1ccc(S(=O)(=O)c2cn(CC(=O)Nc3ccc4c(c3)OCO4)c3ccccc3c2=O)cc1	i
COc1ccc(-n2nnc(C(=O)NCc3ccccn3)n2)cc1	i
O=C(Nc1cnc(N2CCN(c3ccccc3)CC2)nc1)c1c(F)cccc1F	i
CN(C)C(CNS(=O)(=O)Cc1ccc(C(F)(F)F)cc1)c1ccco1 (centres undefined)	i
Cn1ccnc1SCC1CCN(C(=O)c2cc(-c3ccccc3)on2)CC1	i
COC(=O)C1CCN(c2ncnc3[nH]ncc23)CC1	i
CCOC(=O)C(=O)N1CCN(c2nnc(SCC(=O)NC(C)C)s2)CC1	i
CCOC(=O)c1ccc(NC(=O)COc2coc(CSc3nncn3C)cc2=O)cc1	i
O=C(NCc1nc(-c2ccccc2)no1)c1csc(-c2cc3ccccc3[nH]2)n1	i
CCOc1coc(C(=O)Nc2cccc(NC(C)=O)c2)cc1=O	i
COC(=O)N1CCc2ccc(F)cc2C1C(=O)Nc1cccc(C(C)=O)c1 (centres undefined)	i
COc1cc(Cl)cc2c1OC=CC(C(=O)Nc1ccc(NC(C)=O)cc1)=C2	i
CN1CCc2c(sc(NC(=O)CCCSc3ccccc3)c2-c2nc3ccccc3s2)C1	i
O=C(CN1CCN(c2ccccc2)C1=O)NCCC1=CCCCC1	i
Cc1nc(C)c(CC(=O)O)s1	i
O=C(NCCc1ccoc1)C1(c2cccs2)CCCC1	i
CCOc1ccc(Cl)cc1S(=O)(=O)n1ccnc1	i
COC(=O)c1ccccc1NC(=O)c1c2c(nn1C1CCS(=O)(=O)C1)CCC2 (centres undefined)	i
CCCC(=O)N(CCN1CCOCC1)c1nc2ccc(C)cc2s1	i
COc1ccc(C(=O)Nc2sc3c(c2-c2nc4ccccc4s2)CCN(C)C3)cc1	i
CCOc1ccc(-c2cc3c(=O)n(CC(=O)Nc4ccc5c(c4)OCCO5)ncn3n2)cc1	i
O=C(Nc1c(F)cccc1F)N1CC(c2nc(Cc3ccccc3)no2)C1	i
COc1ccc(CNC(=O)Cn2c(C)cc(C)c(-c3nc(-c4ccccc4)no3)c2=O)cc1	i
CCCS(=O)(=O)N1CCc2ccc(NC(=O)c3ccc4nsnc4c3)cc2C1	i
O=C(NCCNc1ccc(Nc2cccnc2)nn1)c1ccco1	i
COc1ccc(NC(=O)Cn2cnc3c(-c4ccc(C)cc4)csc3c2=O)c(OC)c1	i
COc1ccc(OC)c(-c2cc(C(=O)NCC3(O)CCOCC3)n(C)n2)c1	i
O=C(NCC1CCN(S(=O)(=O)c2cccnc2)CC1)c1cc(-c2ccccc2)on1	i
COc1cc(/C=C/C(=O)Nc2ccccc2NC(=O)c2ccccc2C)cc(OC)c1OC	i
O=C(NCc1cc(-c2ccncc2)n(C2CCCC2)n1)c1ccc2c(c1)OCO2	i
O=C(c1ccc(C(F)(F)F)cc1)N1CCOCC1CO (centres undefined)	i
CC1Cc2ccccc2N1C(=O)c1cc(OCc2ccccc2)no1 (centres undefined)	i
N#Cc1nc(-c2ccco2)oc1N1CCN(C(=O)c2ccccc2)CC1	i

These rows are one share of the data (hit frequency here may not be typical).
